# Assay outcomes from PubChem BioAssay.
# Rango-impB inh – Rango-importin beta binding inhibition; Rango CFP/YFP FRET sensor + importin beta, 45 min; Potency, µM (series often up to 92.2 µM), without a hit: at the top dose inhibition of complex formation; actives 0.031% (n = 340,000); AID 540263; active = rising FRET ratio curve, often small or poorly fitted; inconclusive = mostly compound fluorescence or quenching in the first reads; inactive = flat curves in all reads;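 note: potency is the fitted concentration of half-maximal effect; 0% = DMSO wells and 100% = buffer wells lacking importin beta; nearly all actives have a fitted effect of over 15% in size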
# Target sequence (Q14974 whole entry, looked up): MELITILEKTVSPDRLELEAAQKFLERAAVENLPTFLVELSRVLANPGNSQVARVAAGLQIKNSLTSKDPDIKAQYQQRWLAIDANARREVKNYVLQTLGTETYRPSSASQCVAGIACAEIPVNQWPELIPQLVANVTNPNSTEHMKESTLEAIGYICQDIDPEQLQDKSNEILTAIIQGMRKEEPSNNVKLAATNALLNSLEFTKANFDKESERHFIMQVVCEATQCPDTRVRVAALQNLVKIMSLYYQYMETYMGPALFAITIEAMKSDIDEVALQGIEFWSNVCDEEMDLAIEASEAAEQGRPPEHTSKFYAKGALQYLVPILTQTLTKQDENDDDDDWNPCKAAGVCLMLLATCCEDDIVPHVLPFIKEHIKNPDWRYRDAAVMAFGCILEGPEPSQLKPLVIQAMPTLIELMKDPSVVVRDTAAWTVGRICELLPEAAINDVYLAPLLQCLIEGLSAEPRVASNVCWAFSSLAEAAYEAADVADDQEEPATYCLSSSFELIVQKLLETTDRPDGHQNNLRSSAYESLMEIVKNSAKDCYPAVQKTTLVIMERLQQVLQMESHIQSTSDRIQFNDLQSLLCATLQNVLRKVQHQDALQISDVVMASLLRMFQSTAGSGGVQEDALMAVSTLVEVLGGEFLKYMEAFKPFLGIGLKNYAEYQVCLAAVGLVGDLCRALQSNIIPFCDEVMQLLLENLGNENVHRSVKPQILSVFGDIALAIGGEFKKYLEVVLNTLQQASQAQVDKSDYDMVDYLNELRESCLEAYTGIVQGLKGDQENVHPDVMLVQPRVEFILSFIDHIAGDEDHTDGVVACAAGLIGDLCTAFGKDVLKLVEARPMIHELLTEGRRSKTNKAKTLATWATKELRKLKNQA
#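 Inhibition scored from the CFP 486 nm/YFP 530 nm FRET ratio 45 min after adding 0.125 microM importin beta to 50 nM Rango biosensor preincubated 5 min with compound (room temperature, PBS with DTT, Tween-20, BSA). No-importin wells as positive control.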
# GLA inh pH 4.5 – inhibitors of human alpha-galactosidase A at pH 4.5; purified enzyme, 4-MU-alpha-Gal fluorescence, pH 4.5; activity change, negative = inhibition, % at 105 µM; P06280; 230,000 tested, under 10 active; inconclusive = small, poorly fitted or top-dose-only inhibition, or a rising curve; inactive = flat fitted curve, though single readings scatter; no compound was filed as active;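 note: 0% = full activity with enzyme and -100% = basal without enzyme; dose as in the result columns while the protocol names 77 µM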
# Rango dissoc inh – inhibition of RanGTP-driven Rango-importin beta dissociation | actives 0.071% (n = 340,000) | Potency, µM (top dose mostly 46.1 µM), inactives show top-dose activity change, negative = inhibition | AID 540253 | O95149+P62826 | Biochemical FRET Rango-importin beta, RanGTP-induced dissociation; active means falling FRET ratio curve, often poorly fitted, with flat reads before Ran was added; inconclusive means other falling curves, or compound fluorescence or quenching; inactive means flat or rising ratio curve;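 note: potency is the fitted concentration of half-maximal effect; % of control where 0% means no effect; nearly all actives have a fitted effect of over 45% in size; -100% = wells without RanGTP and RCC1; the record marks most hits as doubtful in a second field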
#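 Rango (0.1 uM)–importin beta (0.25 uM) complex; RanGTP-RCC1 trigger; 45 min RT; CFP/YFP FRET read.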
# miR-21 reporter – miR-21 reporter, rising signal. HeLa miR-21 FLuc reporter, luciferase, 48 h. AID 2288. Potency, µM (series often up to 38.3 µM), inactives show at the highest dose reporter change, positive = more light. 340,000 tested, under 10 active; active = well fitted rising curve with a large enough effect; inconclusive = small, poorly fitted or top-dose-only effect; inactive = no such curve, though single readings can be large or run the other way;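 note: % of control where 0% means no effect; miR-21 action dims this reporter so a rising signal means less miR-21 action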
#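 HeLa cells stably expressing CMV-driven firefly luciferase with a downstream miR-21 binding sequence, endogenously expressing miR-21, were treated with titrations (up to about 40uM final) for 48 hours at 37 degree Celsius. Luciferase luminescence was read after lysis.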
# Numbers without * were called inactive; ? = inconclusive; nt = not tested or not shown; & = joins results of further samples. Only part of the results is shown, so the mix of outcomes need not match the whole.
SMILES,Rango-impB inh,GLA inh pH 4.5,Rango dissoc inh,miR-21 reporter
C#CCOCCOCCOCCNc1nc(N2CCN(C(=O)C([C@@H](C)CC)n3cc(C(N)CO)nn3)CC2)nc(N2CCN(C(=O)[C@H](CCC(=O)O)n3cc(C(N)Cc4ccc(O)cc4)nn3)CC2)n1 (stereo not given in full),nt,3,nt,1%
CCC(NC(=O)c1ccncc1)c1ccccc1 (stereo not given),-0.5%,nt,1%,-4%
Cc1ccc(N(CC2CO2)S(=O)(=O)c2ccc(C)cc2)cc1 (stereo not given),3.5%,-5,-9%,-4%
CCCn1nnc(NC(=S)NC(=O)c2ccccc2OC)n1,7.2%,nt,4%,nt
Cc1ccc(-n2nnnc2SCC(=O)Nc2c(C)n(C)n(-c3ccccc3)c2=O)cc1,-0.2%,4,9%,-1%
Cc1ccc2c(c1)C(=O)C(=O)N2Cc1ccccc1,0.8%,nt,2%,nt
O=C(C(Cl)Cl)N1c2ccccc2OCC1c1ccccc1 (stereo not given),-5.2%,-18,6%,18%
CCCCCCC(=O)NNC(=O)c1c(O)c2ccccc2n(CCC)c1=O,2.5%,1,-1%,1%
C=CCn1c(Cc2csc(N)n2)nnc1SCC(=O)Nc1ccc(C(=O)OCC)cc1,1.2%,-11,-7%,0%
COc1ccc(CC(=O)Nc2ccccc2N2CCCC2)cc1OC,-4.3%,nt,2%,7%
CC(=O)CSc1nnc(-c2ccc(S(=O)(=O)N3CCOCC3)cc2)n1C,1.7%,nt,-1%,-1%
CCOc1ccc(C(C)=O)cc1CC(C(N)=O)C(N)=O,0.0%,3,-18%,1%
Cn1ncc(Cl)c1C(=O)N1CCN(S(=O)(=O)c2ccc(Cl)s2)CC1,0.1%,nt,-12%,-7%
COCCN(C(=O)c1csnn1)C(C(=O)NC1CCCC1)c1ccccc1F (stereo not given),-0.6%,nt,-5%,-1%
COc1cc([N+](=O)[O-])cc(CN2CCCCC2)c1O,7.7%,-14,0%,-2%
O=S(=O)(Nc1cccc(-c2ccc(N3CCCCCC3)nn2)c1)c1cccc(F)c1,?,nt,?,-65%&-46%
Cc1nc2ccccc2c(=O)n1CCc1ccc(O)cc1,5.7%,nt,-4%,-6%
COCc1cc(C)nc(Nc2ccccc2OC)c1C#N,-3.7%,nt,2%,3%
Cc1cc2oc(=O)cc(CN3CCCc4ccccc43)c2cc1C,0.5%,6,-11%,-28%
COc1cc2c(cc1OC)CN(C(=O)c1cc3ccccc3oc1=O)CC2,0.2%,4,1%,7%
CN1CCN(C(=O)C2CCCN(S(=O)(=O)c3ccc(Cl)cc3)C2)CC1 (stereo not given),-0.3%,nt,-1%,-4%
COc1cccc(/C=N/NC(=O)c2cc(-c3ccccn3)nc3ccccc23)c1O,?,nt,-27%,nt
COC(=O)c1ccc(CSc2nnc(-c3ccncc3)o2)cc1,0.7%,nt,-7%,-1%
COc1cc(OC)cc(C(=O)NCCC(c2ccccc2)c2ccccc2)c1,-2.3%,nt,-10%,11%

# Next section, starting with the last 7 of the part before.
SMILES,Rango-impB inh,GLA inh pH 4.5,Rango dissoc inh,miR-21 reporter
COCc1cc(C)nc(Nc2ccccc2OC)c1C#N,-3.7%,nt,2%,3%
Cc1cc2oc(=O)cc(CN3CCCc4ccccc43)c2cc1C,0.5%,6,-11%,-28%
COc1cc2c(cc1OC)CN(C(=O)c1cc3ccccc3oc1=O)CC2,0.2%,4,1%,7%
CN1CCN(C(=O)C2CCCN(S(=O)(=O)c3ccc(Cl)cc3)C2)CC1 (stereo not given),-0.3%,nt,-1%,-4%
COc1cccc(/C=N/NC(=O)c2cc(-c3ccccn3)nc3ccccc23)c1O,?,nt,-27%,nt
COC(=O)c1ccc(CSc2nnc(-c3ccncc3)o2)cc1,0.7%,nt,-7%,-1%
COc1cc(OC)cc(C(=O)NCCC(c2ccccc2)c2ccccc2)c1,-2.3%,nt,-10%,11%
CC(C)Sc1cc(N2CCCC2)nc(-c2ccc(F)cc2)n1,0.0%,-24,-4%,-4%
CCc1c(C)sc(NC(=O)C2CC2c2ccccc2)c1C(N)=O (stereo not given),-0.8%,4,-16%,14%
O=C(NCC1CC1(Cl)Cl)Nc1ccc(Cl)c(Cl)c1 (stereo not given),0.2%,nt,-12%,20%
CCCn1nnnc1NC(=O)c1cccs1,6.0%,2,0%,-5%
CCn1c2ccc(C)cc2c2nnc(NN)nc21,-0.3%,-2,-6%,-13%
COC(=O)/C(C(C)=O)=C(/C=C/C=C/N(C)C)N(C)C,?,-18,?,1%
Cc1ccc(C)c2[nH]c(=O)c(CN(CCN3CCCC3)C(=O)Nc3cccc(Cl)c3)cc12,-3.2%,-18,-3%,15%
C=C1CCN(C(C)C(=O)OC)S(=O)(=O)c2ccccc21 (stereo not given),0.5%,-4,-11%,-8%
CCNC(=O)c1ccc(C23CC4CC(CC(C4)C2)C3)o1,-0.4%,-1,-9%,2%
Cc1cnc(C(=O)OC(C)C(=O)Nc2cccc3ccccc23)cn1 (stereo not given),5.1%,nt,2%,nt
Cc1ccc(SCCC(=O)Nc2cc(C)on2)cc1,-1.1%,8,-6%,-2%
CN(C(=O)COC(=O)c1ccccc1NCCO)C1CCS(=O)(=O)C1 (stereo not given),0.3%,nt,2%,nt
Cc1cc(C(=O)NCCc2ccc(Cl)cc2)no1,1.8%,3,-10%,-16%
COc1ccccc1NC(=O)Cc1nnc(SCC(=O)Nc2nccs2)n1C,3.5%,nt,1%,2%
CCOc1ccccc1CN1CCNC(=O)C1CC(=O)NCc1ccccn1 (stereo not given),0.2%,nt,-10%,-3%
CCn1c(SCC(=O)Nc2cccc(C(C)=O)c2)nnc1C(C)C,2.5%,-11,3%,10%
Cc1c(Br)c(=O)oc2c(C)c(O)ccc12,?,8,?,-18%
O=C1CN(C(=O)COC(=O)CNS(=O)(=O)/C=C/c2ccccc2)c2ccccc2N1,-2.4%,-2,-4%,-5%
C[C@H](NC(=O)c1ccco1)C(=O)Nc1ccc2c(c1)OCO2,8.3%,7,16%,-7%
O=C(CN1CCN(Cc2ccc(F)cc2Cl)CC1)NCc1ccccc1,2.3%,nt,1%,21%
COc1ccc([N+](=O)[O-])cc1NC(=O)c1ccc(N2C(=O)CCC2=O)cc1,-0.4%,6,0%,-1%
CCOc1ccc(NC(=O)c2cc3ccccc3cc2O)cc1,?,7,?,-56%
COc1ccc(NC(=O)NCc2ccccc2F)cc1OC,-0.4%,6,-1%,3%
CCOC(=O)N1CCC(NCCNC(=O)c2cccs2)CC1,6.2%,4,-1%,-8%
CCOC(=O)C1(CCCc2ccccc2)CCN(C(=O)c2ocnc2C)CC1,2.8%,-1,-13%,-1%
COCCN(Cc1ccccc1)C(=S)Nc1ccc(OC(F)F)cc1,-0.3%,-6,-8%,1%
Cc1cc(-c2nc(C)c(-c3nnc(SCC(=O)Nc4cc(Cl)cc(Cl)c4)n3C)s2)no1,2.6%,8,-4%,0%
c1cnc2c(Oc3ncnc4sccc34)cccc2c1,3.4%,6,1%,-11%
O=C(CCCCCn1c(=S)[nH]c2ccc(N3CCOCC3)cc2c1=O)NCc1ccc(Cl)cc1,?,3,?,0%
COc1cccc(NC(=S)Nc2cc(C)cc(C)n2)c1,-0.9%,-3,4%,-61%
COc1ccc(-c2ccc(=O)n(Cc3cccc([N+](=O)[O-])c3)n2)cc1,-3.9%,4,16%,-1%
COCCn1c(C)cc(C(=O)CN2C(=O)NC3(CCCCCC3)C2=O)c1C,0.2%,nt,2%,nt
CCc1ccc2c(c1)C(C)=CC(C)(C)N2,?,-2,-5%,1%
N#Cc1ccc(C(=O)OCC(=O)N2CCCC2)cc1,3.2%,nt,7%,3%
O=C(Nc1nnc(-c2ccco2)s1)c1ccccc1,-7.5%,-2,-18%,-22%
NN1C(=O)NC(c2ccccc2)(c2ccccc2)C1=O,0.7%,0,10%,-1%
COc1ccc(C2C3=C(CCCC3=O)Nc3nc(SCc4ccc(C(=O)O)cc4)nn32)cc1OC (stereo not given),-0.3%,1,-13%,-6%
Cc1sc(-c2ccncc2)nc1OC(=O)c1ccccc1,?,-9,?,1%
CCC(=O)Nc1cccc(NC(=S)NC(=O)c2cc3ccccc3o2)c1,0.2%,-2,3%,-67%
CSc1ccc(C(=S)N2CCCC2)cc1,2.8%,nt,2%,-23%
CCCn1c(O)c(CN2CCCC(C)C2)c(C)c(C#N)c1=O (stereo not given),?,-5,?,-4%
CC(C)(CNC(=O)C1c2ccccc2-c2ccccc21)N1CCOCC1,1.1%,nt,-7%,-2%
O=C(NCCN1CCN(c2ccccc2)CC1)C1(S(=O)(=O)c2ccc(Cl)cc2)CC1,3.4%,2,0%,0%
C/C(=N\NC(=O)c1ccncc1)c1ccc(N(C)C)cc1,-1.4%,-1,1%,-18%
CCOc1ccc(NC2OC(C)C(O)C(O)C2O)c([N+](=O)[O-])c1 (stereo not given),-14%,nt,8%,-6%
CCOC(=O)c1c(NC(=O)CSc2nnc(-c3cccnc3)o2)sc2c1CCC2,-0.9%,-2,-2%,-1%
Nc1c2c(nn1-c1ccccc1)CCC2,0.5%,nt,5%,-15%
CC(C)Nc1nnc(SCC(=O)N2CCN(C(=O)c3ccco3)CC2)s1,3.5%,nt,2%,nt
CCC1(CC)C(=O)C2=C3C1[C@H](C(=O)OC)CC(C(=O)OC)C[C@H]3[C@H]1C(=O)N(c3ccccc3)C(=O)[C@H]1[C@H]2C (stereo not given in full),-1.0%,nt,-12%,nt
C/C(=N\NC(=O)c1cc2ccccc2cc1O)c1cccs1,?,nt,?,-48%
C/C(=N\NC(=O)c1ccccc1OCc1ccc(F)cc1)c1ccccn1,0.8%,nt,-9%,nt
O=C1NC(=Nc2ccccc2)c2ccc([N+](=O)[O-])cc21,-0.7%,-6,-5%,1%
CCc1nnc(NC(=O)C2CCCO2)s1 (stereo not given),0.3%,-2,2%,-14%
COc1ccccc1/C=C1\SC(=S)N(CCC(=O)Nc2cccc(O)c2)C1=O,-0.5%,nt,16%,-3%
CCCCC1=CC2=C(c3ccco3)C(=O)C(C)(OC(=O)c3ccc(OC)cc3)C(=O)C2=CN1CCCOC(C)C (stereo not given),?,8&-10,?,-3%
COc1ccc(-n2nc(C(=O)NCCCN3CCOCC3)c3ccccc3c2=O)c(OC)c1,0.6%,nt,11%,3%
CC(C)(C)OC(=O)N1CCC(C(=O)Nc2ccc3c(c2)CCC3)CC1,1.4%,nt,-16%,nt
CN(C(=O)CSc1nc(C2CC2)nc2ccccc12)c1nc(-c2ccccc2)cs1,-4.6%,-3,-7%,-3%
CCc1ccc(NC(=S)N2CCC(NC(=O)c3ccccc3)CC2)cc1,4.2%,nt,-13%,4%
O=C(CSc1ccccc1Cl)NC1CCCc2ccccc21 (stereo not given),2.7%,-2,5%,-4%

# Following part
SMILES,Rango-impB inh,GLA inh pH 4.5,Rango dissoc inh,miR-21 reporter
COc1cccc(/C=N/NC(=O)CC(=O)NCCc2ccc(OC)c(OC)c2)c1,2.1%,6,14%,-3%
COc1cccc(NS(=O)(=O)c2ccc3c(c2)CCCN3C(C)=O)c1,-4.4%,7,0%,7%
Cc1ccc(NC(=O)C2CCCN2S(=O)(=O)c2ccc3c(c2)CCC(=O)N3)cc1Cl (stereo not given),-2.1%,14,23%,9%
COc1cccc(-c2cc(C(F)(F)F)c3c(N)c(C#N)sc3n2)c1,nt,3,nt,-11%
CCN(CC)CCNC(=O)C1(O)c2cc(Br)ccc2NC(=O)N1c1cccc(OC)c1 (stereo not given),4.4%,nt,-2%,-4%
COc1ccc(OCCSc2nnc(-c3cccnc3)n2N)cc1,0.7%,-8,-4%,-6%
COc1cccc(NC(=O)Nc2ccc3c(c2)N(C)C(=O)CS3)c1,-0.5%,3,-13%,19%
CCCNC(=O)c1ccccc1NC(=O)c1ccccc1N(C)S(=O)(=O)c1ccccc1,0.4%,-5,17%,13%
CCN1CCN(S(=O)(=O)c2ccc(Cl)c(C(=O)Nc3ccc(OC(F)F)cc3)c2)CC1,0.5%,nt,-21%,5%
CC(=O)c1c(C)n(C)c2ccc(O)cc12,?,1,?,2%
CCn1nc(C(=O)NCc2nnc3ccccn23)c2ccccc2c1=O,-0.5%,nt,-14%,nt
CC(=O)NC(CC(=O)Nc1cccc(S(=O)(=O)N2CCCCC2)c1)c1ccccc1 (stereo not given),-2.4%,-6,-10%,-3%
